# NPYLR7 agonist – activates Aedes aegypti NPYLR7 receptor. HEK293T NPYLR7/Galpha15, GCaMP6s calcium fluorescence. activation, % at 10 µM. 270,000 compounds, 0.15% hits; in the data active = activation above about 40%;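 note: 0% = vehicle and 100% = reference agonist at the receptor; some compounds past the cut are filed as inactive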
# NPYLR7 agonist max-min – recorded beside NPYLR7 agonist, whose call it bears; activation, %; measured here: Max-Min RFU normalised activation; some inactives read as strong as hits;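 span of the calcium signal over five minutes; 0% = vehicle and 100% = native peptide agonist; compound fluorescence can raise it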
# Active calls of the source: *; & = joins results of further samples.
# The opening 3 entries, ahead of the listing:
SMILES,NPYLR7 agonist,NPYLR7 agonist max-min
CCOc1ccc(CN(Cc2cccc(C(F)(F)F)c2)Cc2nc(C(=O)NCc3cccnc3)co2)cc1,19,24
CCCn1c(N2CCN(Cc3ccccc3C)CC2)nc2c1c(=O)[nH]c(=O)n2C,-13,-13
Cc1sc2nc(CN3CCCC3)nc(Sc3nnnn3C3CCCC3)c2c1C,7,7

# Main list, repeating the preview:
SMILES,NPYLR7 agonist,NPYLR7 agonist max-min
CCOc1ccc(CN(Cc2cccc(C(F)(F)F)c2)Cc2nc(C(=O)NCc3cccnc3)co2)cc1,19,24
CCCn1c(N2CCN(Cc3ccccc3C)CC2)nc2c1c(=O)[nH]c(=O)n2C,-13,-13
Cc1sc2nc(CN3CCCC3)nc(Sc3nnnn3C3CCCC3)c2c1C,7,7
COc1ccc(-c2nc3ccc(C)cn3c2NC(=O)CC(C)(C)C)cc1OC,-2,0
COc1cccc(C(=O)N2C(C(=O)NC3CC3)COC23CCN(C(=O)c2ccc(Cl)cc2)CC3)c1 (centres undefined),0,6
Cc1csc(SCc2cc(=O)c(OC(=O)/C=C/c3ccccc3)co2)n1,0,-5
CCC(=O)NCCCn1nc(-c2ccc(F)cc2)ccc1=O,-1,-3
CCCCN(CC(=O)N(CCc1c[nH]c2ccccc12)Cc1ccc(OC)c(OC)c1)C(=O)c1cccc(F)c1,3,14
CC(C)C1CN(c2ncccn2)CCC(=O)N1CC1CC1 (centres undefined),9,0
CC1CN(C(=O)Cn2cc(C(F)(F)F)cc(Cl)c2=O)CC(C)O1 (centres undefined),1,2

# 4 of the compounds above, field by field.
Compound: COc1cccc(C(=O)N2C(C(=O)NC3CC3)COC23CCN(C(=O)c2ccc(Cl)cc2)CC3)c1 (centres undefined)
  NPYLR7 agonist = 0 | NPYLR7 agonist max-min = 6

Compound: CC1CN(C(=O)Cn2cc(C(F)(F)F)cc(Cl)c2=O)CC(C)O1 (centres undefined)
  NPYLR7 agonist = 1 | NPYLR7 agonist max-min = 2

Compound: Cc1csc(SCc2cc(=O)c(OC(=O)/C=C/c3ccccc3)co2)n1
  NPYLR7 agonist = 0 | NPYLR7 agonist max-min = -5

Compound: Cc1sc2nc(CN3CCCC3)nc(Sc3nnnn3C3CCCC3)c2c1C
  NPYLR7 agonist = 7 | NPYLR7 agonist max-min = 7

# Three entries picked at random from the list so far, as already listed:
SMILES,NPYLR7 agonist,NPYLR7 agonist max-min
COc1cccc(C(=O)N2C(C(=O)NC3CC3)COC23CCN(C(=O)c2ccc(Cl)cc2)CC3)c1 (centres undefined),0,6
CC(C)C1CN(c2ncccn2)CCC(=O)N1CC1CC1 (centres undefined),9,0
CC1CN(C(=O)Cn2cc(C(F)(F)F)cc(Cl)c2=O)CC(C)O1 (centres undefined),1,2

# Later entries:
SMILES,NPYLR7 agonist,NPYLR7 agonist max-min
Cc1c[nH]c(CNC(=O)CCC(=O)NC2CCCCCC2)c(C)c1=O,5,-1
Cc1ccc(N(CCCCN2C(=O)c3ccccc3C2=O)C(=O)c2ccc(C(C)(C)C)cc2)cc1,19,0
C=C(C)CSc1nnc(NC(=O)c2ccc(C(C)(C)C)cc2)s1,21,14
Cc1ccc2nc(CSc3ccc(O)cc3)cn2c1,4,1
CCCNC(=O)C(C)N1CCC(C(F)(F)F)(C(F)(F)F)C1 (centres undefined),-3,-7
O=C(Cc1c(F)cccc1F)N1CCC(n2nc(-c3ccccc3)cc2-c2ccccc2)CC1,18,8
O=C(NCCc1ccccn1)c1csc(CSc2nnc(-c3ccccc3Cl)n2-c2cccc(Cl)c2)n1,2,10
CNS(=O)(=O)c1ccc(Cl)c(C(=O)N2CCCCC2C)c1 (centres undefined),2,2
CC1CN(C(=O)NCC(C)(C)c2ccccc2)CC(C)O1 (centres undefined),-2,-2
C=CCn1c(C)c(C)n2c3c(=O)n(CC(N)=O)c(=O)n(C)c3nc12,4,-1
Cc1nc(-c2ccccc2)nc(N2CCN(C(=O)NC(C)C)CC2)c1Cc1c(F)cccc1Cl,5,9
NC(=O)c1cnc2n1CCN(C(=O)CC(c1ccccc1)c1ccco1)C2 (centres undefined),12,12
CC(C)(C)NC(=S)NC(=O)c1ccco1,0,0
CC(=O)Nc1ccccc1-n1cnnc1,20,17
CNC(=O)Cn1cc(/C=C/c2ccccc2)cn1,-2,-4
Cc1ccsc1C(=O)N1CC(=O)N2CC(C)c3ccccc3C2C1 (centres undefined),26,18
CC(=O)NCC(=O)N1Cc2cnc(CC(C)C)nc2C1,4,2
CCc1c(C)c(C(=O)NC2CC2)n(Cc2c(F)cccc2F)c1C,-5,-1
O=C(CNCC1(c2ccccc2)CCOCC1)Nc1cnccn1,20,4
Cc1noc(C)c1CC(=O)N(CC(C)C)C1CCS(=O)(=O)C1 (centres undefined),1,2
CCN(c1ccccc1)S(=O)(=O)c1ccc(C(=O)Nc2sccc2C(=O)NN(C)C)cc1,-4,-4
CCN(CC)CCN(C(=O)CCS(=O)(=O)c1ccccc1)c1nc2c(F)cc(F)cc2s1,-6,-9
CCOc1ccc2ccccc2c1C(=O)Oc1coc(CSc2nc(C)cs2)cc1=O,-2,-6
CC1CN(C(C)CNC(=O)CCN2C(=O)CCC2=O)CC(C)O1 (centres undefined),-1,2
O=C(Nc1nc2ccc(Cl)cc2s1)c1ccc(Br)s1,5,3
O=C(/C=C/c1ccccc1)Nn1cnc2c(cnn2-c2ccccc2)c1=O,2,0
c1ccc2[nH]c(SCc3cn4ccsc4n3)nc2c1,2&1,-2&-1
COCc1nc(CC#N)nc(N2CCN(C(=O)N(C)C)CC2)c1Cc1ccccc1F,15,11
O=C1CC(C(=O)N2CCn3nc(C(=O)NC4CC4)cc3C2)c2ccccc2N1 (centres undefined),19,8
CCOC(=O)c1c(N=CC2=C(O)CC(C)(C)CC2=O)sc2c1CCCC2,10,6
O=c1c(Cl)c(Cl)cnn1-c1ccc(S(=O)(=O)O)cc1,6,6
O=C(COc1ccc(F)cc1)OCc1cc(-c2ccc(F)cc2F)on1,0,-3
CCOC(=O)CC1CCCCN1C(=O)c1cc(COc2ccc(OC)cc2Cl)on1 (centres undefined),0,0
O=C1C2C3C=CC(C3)C2C(=O)N1c1ccc(Cc2ccc(N3C(=O)C4C5C=CC(C5)C4C3=O)cc2)cc1 (centres undefined),-3,-8
O=C(NC1CCc2[nH]c3c(Cl)cccc3c2C1)C1CCCO1 (centres undefined),27,15
O=C(CSc1ccccn1)N1CCc2c(c(C(=O)N3CCOCC3)nn2CCc2ccccc2)C1,3,-5
Cc1nccn1CCc1nc(CC(C)C)nn1-c1cccc2cccnc12,35,16
O=C(CNc1ccc(Br)cc1)c1ccc(Br)s1,-2,-3
CCc1ccc(C(=O)Nc2c(-c3cc(C)cc(C)c3)nc3cc(C)ccn23)cc1,-9,-9
COc1ccccc1-c1nc2cc(C)ccn2c1NC(C)(C)CC(C)(C)C,-5,-2
COC(=O)C(Cc1ccccc1)NC(=O)c1cccnc1Nc1cccc(C)c1C (centres undefined),-15,-24
Cc1ccsc1-c1nc(CN(C)CC2(CO)CCOCC2)c(C)o1,17,4
O=C(NCc1ccccc1)c1cc(C2COCCN2C(=O)c2ccc3ccccc3c2)on1 (centres undefined),0,-2
O=C(CCNC(=O)c1ccoc1)NCc1cccnc1OC1CCCC1,9,5
COc1ccc(CC(=O)N2CCN(c3ccc(NCc4ccccc4)nn3)CC2)cc1,0,-1
NC(=O)N=Nc1c(O)[nH]c2ccc([N+](=O)[O-])cc12,-1,2
O=C(O)CN1C(=O)/C(=C/c2ccccc2OCc2ccc([N+](=O)[O-])cc2)SC1=S,-12,-20
CCn1c(C2CCN(C(=O)COCC3CCCCO3)CC2)nn(C)c1=O (centres undefined),3,-1
O=C(O)Cc1c[nH]c2ccc(O)cc12,-7,-5
COc1ccc(CCN2C(=O)CC(C(=O)O)SC2=Nc2ccc(F)cc2)cc1OC (centres undefined),2,-1
# Next part
SMILES,NPYLR7 agonist,NPYLR7 agonist max-min
COCCCn1c(C(=O)NCC(=O)c2ccccc2)cc2c(=O)n(C)c(=O)n(C)c21,0,-2
COc1cc(/C=C/c2nc3ccccc3o2)cc(Cl)c1O,334*,351*
O=C(C1CCN(S(=O)(=O)c2ccccc2F)CC1)N1CCCC1c1ccccc1 (centres undefined),-1,2
CCN(CCOC)c1ccc(N=Nc2ccc([N+](=O)[O-])cc2S(=O)(=O)C(F)F)cc1,-7,-11
O=C(NCc1cccnc1)c1csc(CSc2nnc(-c3ccco3)n2-c2ccccc2F)n1,0,-1
CC1(C)OC(=O)C(=CNc2ccc(S(=O)(=O)NC(N)=O)cc2)C(=O)O1,9,11
CN(c1ccccc1F)S(=O)(=O)c1ccc(F)c(C(=O)O)c1,6,2
O=c1c(CN(CCc2ccccc2)Cc2ccccc2)coc2c(Cl)cc(Cl)cc12,12,6
CCCn1c(C)c(C)n2c3c(=O)n(CC)c(=O)n(C)c3nc12,14,4
N#Cc1c(N)n(-c2ccc(Cl)cc2)c2nc3ccccc3nc12,-1&0,4&-1
Cc1cc(C)n(-c2ccccc2CNC(=O)c2cc[nH]c2C)n1,3,-1
Cn1c(=O)[nH]c(=O)c2c1nc(N1CCOCC1)n2CCCc1ccccc1,4,-2
COc1cc(C)c(S(=O)(=O)Nc2c(F)cccc2F)cc1OC,5,7
CC(NCc1ccccc1Cn1cccn1)C(=O)NC1CCCC1 (centres undefined),2,1
COc1cc(COc2cccc3ccc(N4CCCC4)nc23)cc(OC)c1,7,6
CC1C(=O)N(c2ccc3c(c2)OCO3)CCN1Cc1c(F)cccc1F (centres undefined),8,18
CCOc1ncccc1C(=O)N1CCOC(COc2ccccc2OC)C1 (centres undefined),-2,1
O[C@H](CNC[C@@H](O)[C@H]1CCc2cc(F)ccc2O1)[C@@H]1CCc2cc(F)ccc2O1,-20,-30
Cc1cc(C)c2c(c1)N(C(=O)C(=O)NCCc1ccccn1)CCC2,19,16
O=C(CN1C(=O)C2C3CC(C(Br)C3Br)C2C1=O)OC1CCCCC1 (centres undefined),16,8
CCc1cccc(NC(=O)c2cc(-c3cccc(OC)c3)nc3ccccc23)c1,0,-6
CC(C)(C)n1nc2c(c1NC(=O)c1ccc(-c3ccccc3)cc1)CSC2,-3,-5
O=C(CCN(Cc1ccco1)c1nc(-c2cccc(Br)c2)nc2ccccc12)NC1CC1,-3,11
CCN1CCCC1CNC(=O)CCC1CCN(Cc2cccc(C(F)(F)F)c2)CC1 (centres undefined),7,5
CC(C)c1ccc(CN2CCCC3(CCN(C(=O)c4cc(=O)n(C)c(=O)n4C)C3)C2)cc1 (centres undefined),19,10
COc1ccc(OC)c(C2C(=C(O)c3ccc(C)cc3)C(=O)C(=O)N2CCN2CCOCC2)c1 (centres undefined),3,5
COc1ccc(-c2nccc(CCC(F)(F)F)n2)cn1,-2,-3
COc1ccc(-c2nn(-c3ccccc3C)cc2CNCc2csc(C(C)C)n2)cc1F,-6,-20
CCOc1cc(S(=O)(=O)n2ccc(C)n2)ccc1F,12,15
COc1ccc2cc([C@H](C)CO)ccc2c1,-16,-23
COCc1cc(N2CCN(c3ccc(OC)cc3)CC2)nc(SCc2ccc(C(=O)O)o2)n1,12,21
CC(C)(C(=O)NCC1CCN(Cc2cccnc2)C1)c1ccccc1 (centres undefined),4,-2
O=C(NC1c2ccccc2CC1O)C1CC1c1ccco1 (centres undefined),0,-1
Cn1cc(CNC(=O)c2cccc(OC3CCN(C(=O)C4CC4)CC3)c2)cn1,9,5
Clc1ccc(C2CCSCC2)cc1,-6,23
COc1ccc(-c2c(NC(=O)C3CCCCC3)oc3ccccc3c2=O)cc1OC,-3,-4
CCCCC(=O)NCCc1cc2cc(C)c(C)cc2[nH]c1=O,0,10
COCCN(CC(=O)N(CCc1c[nH]c2ccccc12)Cc1ccc(C(F)(F)F)cc1)C(=O)Nc1ccc(C)c(Cl)c1,15,23
Cc1ccsc1CN(Cc1nnc(-c2ccc(C)n2C)o1)C1CC1,1,-2
COc1ccc(NC(=O)CCN(CCc2ccccc2)c2nc(C3CC3)nc3ccccc23)cc1,-2,8
Cc1cccc2oc(=O)n(C3CCN(C(=O)c4cccc(Cl)c4Cl)CC3)c12,34,27
Cc1cc(=O)n2nc(N(CC(C)C)C3CC3)sc2n1,-3,-7
O=[N+]([O-])c1ccc2sc(C=Cc3ccsc3)nc2c1,10,10
Fc1ccc(C2=Nc3nnnn3C(c3ccccc3)C2)cc1 (centres undefined),1,0
Cc1ccc(C(O)=C2C(=O)C(=O)N(CCN3CCOCC3)C2c2cccc(Br)c2)cc1 (centres undefined),-1,5
CC1(C(=O)Nc2cccc3ncccc23)CCN1C(=O)C1(c2ccccc2)CCCC1 (centres undefined),16,19
COc1ccc(S(=O)(=O)Oc2ccc(CN(CC3CCCO3)C(=O)C3CCC3)cc2)cc1 (centres undefined),12,11
CCOc1cc(C(=O)Nc2nc(C)cs2)cc(Br)c1OC,2,2
O=C(NCC1CCCN(C(=O)C2CCOCC2)C1)c1ccc(F)cc1 (centres undefined),11,7
Cn1c(=O)c2c(nc(NCC3CCCO3)n2C)n(C)c1=O (centres undefined),7,-2
# (list continues)
SMILES,NPYLR7 agonist,NPYLR7 agonist max-min
CC(=O)Nc1ccccc1C(=O)N1CCN(c2ccccc2)CC1,-12,-15
CC(C)C(C)N(Cc1cc(NC(=O)c2ccccc2Cl)ccc1N(C)C)C(=O)c1ccc(F)cc1 (centres undefined),8,9
Cn1c(=O)[nH]c(=O)c2c1n1c(-c3ccc(F)cc3)nnc1n2C,7,1
CCn1c(=O)c(C(=O)Nc2nccs2)c(O)c2ccccc21,-1,-2
Cc1cc(-c2nc3ncccc3o2)ccc1NC(=O)c1ccco1,3,7
CCCC(=O)N1CCN(c2ccc(Nc3ccccc3)nn2)CC1,-2,-3
Cc1ccc(CNS(=O)(=O)c2cn(C)c(=O)n(C)c2=O)cc1,0,-1
O=C(Nc1ccc(N2CCCC2)c(C(=O)NCc2ccccc2)c1)c1ccc(Cl)c(Cl)c1,6,11
CC(=O)N(CC(=O)Oc1ccccc1[N+](=O)[O-])c1ccccc1,0,0
Cc1cc(C)cc(NC(=O)c2nccnc2-c2nc3ccccc3s2)c1,0,0
O=C(NCc1ccncc1)c1cc(=O)c(OCc2ccccc2)c[nH]1,-3,-5

# Screening data from PubChem BioAssay.

# Some of the compounds tested. The share of hits here may be higher or lower than overall.
